SARS PLP yeast = qHTS of Yeast-based Assay for SARS-CoV PLP; 330,000 tested, 0.19% active; S. cerevisiae expressing SARS-CoV PLpro, growth rescue; control for the full effect not named in the record; AID 485353, 2010; Potency, µM (top dose mostly 32.9 µM), for inactives: at the top dose activity, positive = growth rescue; also: 0% is about no effect; nearly all actives have a fitted effect of over 55% in size; growth read by luminescence after 48 h
Cruzain noTriton = qHTS Assay for Promiscuous and Specific Inhibitors of Cruzain (without detergent) | purified cruzain, Z-FR-AMC fluorescence, no detergent | 200,000 tested, 2.3% active | Potency, µM, inactives show max response, negative = inhibition, hits mostly inhibitors; active = well fitted curve in the direction sought with a large enough effect; inconclusive = small, poorly fitted or top-dose-only effect, or another doubt; inactive = no such curve, though single readings can be large; an effect the other way counts as inactive or inconclusive;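 also: plate controls were enzyme without inhibitor for no effect and buffer without enzyme for full effect; nearly all actives have a fitted effect of over 40% in size; top concentration of the series not given in the record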
Target sequence (P25779 123-467 limits assumed): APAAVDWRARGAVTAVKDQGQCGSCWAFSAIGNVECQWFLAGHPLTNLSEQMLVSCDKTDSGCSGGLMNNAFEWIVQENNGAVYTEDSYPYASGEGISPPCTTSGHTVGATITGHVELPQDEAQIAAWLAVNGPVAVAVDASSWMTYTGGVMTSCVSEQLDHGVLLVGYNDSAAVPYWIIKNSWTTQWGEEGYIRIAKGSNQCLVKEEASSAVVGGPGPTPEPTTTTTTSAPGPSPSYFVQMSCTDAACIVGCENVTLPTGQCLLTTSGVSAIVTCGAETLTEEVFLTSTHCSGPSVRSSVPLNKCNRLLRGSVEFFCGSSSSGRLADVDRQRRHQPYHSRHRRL
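Detergent-free condition (0.00005% Triton X-100) in acetate buffer pH 5.5 with DTT. 1.5 nM enzyme and compound were pre-mixed 15 min, then 2 uM Z-FR-AMC substrate added; reaction progress from fluorescence change between first and third reads (60 s).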
LASV entry inh = qHTS for Inhibitors of binding or entry into cells for Lassa Virus; Potency, µM (highest dose often 37.9 µM), without a hit: at the highest dose activity change, negative = inhibition, actives largely listed as inhibitors; AID 540256, 2011; 300,000 tested, 1.2% active; Lassa virus pseudotype entry inhibition, cell reporter; control for the full effect not named in the record; active means well fitted inhibition curve with a large enough effect; inconclusive means small, poorly fitted or top-dose-only effect, or effect the other way; inactive means flat fitted curve, though single readings scatter; tested in HEK293 cells; also: % is scaled to controls: 0 for no effect and ±100 for the full control effect; nearly all actives have a fitted effect of over 50% in size; luciferase read-out
NS1 function inh = qHTS Assay for Inhibitors of Influenza NS1 Protein Function; S. cerevisiae slowed by influenza A NS1, growth recovery by OD600; Potency, µM (titrated, usually from 46.1 µM), inactives show at the highest dose activity, positive = more growth; 270,000 tested, 0.4% active; AID 2326, 2010; also: actives are rising curves; nearly all actives have a fitted effect of over 50% in size
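S. cerevisiae expressing influenza A NS1, grown in glucose, washed, then diluted 1:100 into pH 6.0 -URA galactose medium with 23 nl compound. Growth recovery read as OD600; NS1-free strain serves as control.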
MARV entry inh = qHTS for inhibitors of binding or entry into cells for Marburg Virus; Potency, µM (series often up to 37.8 µM), inactives show at the top dose activity change, negative = inhibition, usual class: inhibitors; Marburg virus pseudotyped entry inhibition, cell reporter; control for the full effect not named in the record; about a third of the inactives were read at about 46 µM; 300,000 tested, 1.8% active; active = well fitted inhibition curve with a large enough effect; inconclusive = small, poorly fitted or top-dose-only effect, or effect the other way; inactive = flat fitted curve, though single readings scatter; tested in HEK293 cells; about a fifth of its hits are not listed in these tables; also: % is scaled to controls: 0 for no effect and ±100 for the full control effect; luciferase read-out
RE007 growth inh = qHTS Assay for Inhibitors of the HIV-1 protein Vpr. 360,000 tested, 0.21% active. S. pombe RE007 Vpr strain, BacTiter-Glo ATP luminescence, 24 h; control for the full effect not named in the record. Potency, µM (top dose mostly 92.2 µM), inactives show at the top dose activity change, negative = less growth; active = well fitted falling curve with a large enough effect; inconclusive = small, poorly fitted or top-dose-only effect; inactive = no such curve, though single readings can be large or run the other way;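 also: % is scaled to controls: 0 for no effect and ±100 for the full control effect; nearly all actives have a fitted effect of over 50% in size; the assay follows cell death caused by Vpr and the record does not say whether a fall means rescue or toxicity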
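Fission yeast RE007 carrying one integrated HIV-1 vpr copy, seeded at OD 0.01 in PMG+AL medium with 23 nL pinned compound. Grown 24 h at 30 degrees; viability read by BacTiter-Glo luminescence after 5 min.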
Cruzain Triton = qHTS Assay for Promiscuous and Specific Inhibitors of Cruzain (with detergent); AID 1478, 2009; Cruzipain (Trypanosoma cruzi), P25779; 200,000 tested, 0.43% active; purified cruzain, Z-FR-AMC fluorescence, 0.01% Triton; Potency, µM, for the others: max response, negative = inhibition, hits mostly inhibitors; active = well fitted curve in the direction sought with a large enough effect; inconclusive = small, poorly fitted or top-dose-only effect, or another doubt; inactive = no such curve, though single readings can be large; an effect the other way counts as inactive or inconclusive;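 also: plate controls were neutral wells for no effect and buffer without enzyme for full effect; nearly all actives have a fitted effect of over 40% in size; top concentration of the series not given in the record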
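Detergent-containing arm of a paired screen for aggregation-based inhibition: 0.01% Triton X-100 present. Cruzain at 1.5 nM cleaved 2 uM Z-FR-AMC at pH 5.5 with 5 mM DTT; AMC fluorescence gain over 60 s measured activity.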
2A StopGo = High Throughput Screening for Foot and Mouth Disease Virus Antivirals; AID 1159524, 2015; Potency, µM (titrated, usually from 57.9 µM), without a hit: at the highest dose signal change, negative = less light; human cells with a luciferase reporter of 2A StopGo recoding; control for the full effect not named in the record; 410,000 tested, 1.2% active; active = well fitted falling curve with a large enough effect; inconclusive = small, poorly fitted or top-dose-only effect; inactive = no such curve, though single readings can be large or run the other way; tested in HEK293T cells; also: % is scaled to controls: 0 for no effect and ±100 for the full control effect; nearly all actives have a fitted effect of over 45% in size; luciferase light after 4 h
* = called active by the depositor; ? = inconclusive; . = no result given; & = joins results of further samples; [ ] = another dose, or the depositor's remark. Unless noted, calls follow the shape of the dose curve; as a rule, active means well fitted rising curve with a large enough effect; inconclusive means small, poorly fitted or top-dose-only effect; inactive means no such curve, though single readings can be large or run the other way. Potency is read from the fitted curve at half-maximal effect.

smiles	SARS PLP yeast	Cruzain noTriton	LASV entry inh	NS1 function inh	MARV entry inh	RE007 growth inh	Cruzain Triton	2A StopGo
COc1ccc(CNC(=O)c2ccc3c(=O)n(CCCN4CCCC4=O)c(=S)[nH]c3c2)cc1	-1.1%	.	-27.6%	.	-8.0%[46.1 µM]	3.8%	.	?
O=C(CSc1nccn1Cc1ccco1)Nc1ccccc1	-0.9%	.	-6.8%	5.0%	?	-3.1%	.	21.9%
CCN(CC)S(=O)(=O)c1ccc(N2CCOCC2)c(NC(=O)COc2ccc(C#N)cc2)c1	-0.5%	.	13.7%	-3.9%	-7.5%[46.1 µM]	42.9%	.	-26.4%
COC(=O)C1=CN(c2ccc(Cl)cc2)C=C(C(=O)OC)C1c1ccc([N+](=O)[O-])cc1	1.3%	.	?	4.3%	?	8.5%	.	-16.8%
Cc1ccc2c(c1)/C(=N/O)CCS2	1.4%	-2.4%	-18.2%	-6.1%	-9.3%[46.1 µM]	-2.5%	-4.7%	-2.1%
CCN(CC)S(=O)(=O)c1cccc(C(=O)NN2Cc3ccccc3C2=N)c1	25.2%	0.4%	.	6.6%	-1.9%	-5.6%	0.7%	10.1%
Cc1ccc2c(c1)-c1c(c(C(=O)NCCc3ccccc3)nn1C)CS2	.	-29.2%	?	.	.	.	-0.5%	-17.2%
COc1ccc(N(CC(=O)Nc2cc(OC)ccc2OC)S(=O)(=O)c2c(C)nn(C)c2C)cc1	-1.3%	?	.	-5.3%	7.3%	-6.1%	-10.1%	-23.4%
COc1cc(/C=C2\CC(C(C)(C)C)C/C(=C\c3cc(OC)c(OC)c(OC)c3)C2=O)cc(OC)c1OC (stereo not given)	-0.1%	.	.	-0.5%	.	-9.1%	.	14.1µM*
Cc1cc(Sc2nc(N(C)C)nc(N(C)C)n2)nc(Cl)n1	0.2%	.	.	-4.1%	.	-9.3%	.	-1.9%
COc1ccc(CCn2c(=N)c(C(=O)NCC3CCCO3)cc3c(=O)n4ccccc4nc32)cc1 (stereo not given)	-2.4%	.	.	0.1%	.	2.7%	.	-25.0%
CC(C)Oc1cccc(C(=O)C2CCCN(C(=O)c3ccoc3)C2)c1 (stereo not given)	0.1%	.	?	-0.9%	17.9%[46.1 µM]	-6.8%	.	-24.8%
CC(C)N(Cc1ccccc1)C(=O)c1cc2ccc3cccnc3c2[nH]1	.	13.3%	?	.	.	.	-10.3%	?
O=C(c1ccccc1)c1ccc(C(=O)N2CCN(c3ccc(F)cc3)CC2)o1	9.7%	17.0%	?	-23.2%	4.7%	-6.1%	-2.5%	?
COc1ccc(CNc2ccc([N+](=O)[O-])cn2)cc1	-3.2%	.	?	0.7%	?	5.5%	.	10.7%
O=C(Nc1ncc(C(F)(F)F)cc1Cl)C1COc2ccccc2O1 (stereo not given)	-1.1%	2.1%	18.3%	-7.7%	1.6%[46.1 µM]	-12.0%	-0.8%	-5.1%
CCOC(=O)CN1C(=N)N(c2nc(NC(C)C)nc(OC)n2)CC1=O	0.1%	.	.	-5.3%	.	6.5%	.	-5.2%
Cc1cc(Br)ccc1NC(=O)COc1cc(=O)n(C)c2ccccc12	.	-12.8%	-0.1%[46.1 µM]	.	4.2%[46.1 µM]	.	0.2%	-3.2%
Cc1nc2ccc(N)cc2s1	0.3%	-8.3%	.	-14.0%	.	8.4%	3.5%	-5.2%
CC1(C)CC2(CCO1)OC(=O)CC2C(=O)NCCc1ccccc1 (stereo not given)	6.0%	-13.4%	1.8%	5.8%	0.0%	3.5%	3.2%	-10.2%
O=C(CSc1nc2ccccc2c(=O)n1CC1CCCO1)Nc1ccc(F)cc1 (stereo not given)	0.9%	.	-2.9%[46.1 µM]	-2.9%	?	-11.2%	.	22.1%
CCCc1cc(=O)[nH]c(SCC(=O)NC)n1	-7.8%	3.7%	-12.1%	-2.8%	-14.0%	-8.0%	3.7%	14.5%
Cn1c(SCCN2CCCCC2)nnc1-c1ccccc1Br	3.4%	0.1%	6.9%	-1.3%	?	-17.2%	0.9%	-11.1%
CN(C)c1ccc(-c2nnn(CC(=O)Nc3ccc4c(c3)OCCO4)n2)cc1	-1.2%	.	-29.0%[46.1 µM]	3.1%	26.8%[46.1 µM]	8.3%	.	1.4%
CCOC(=O)c1c(SCC(=O)Nc2nccs2)nc(C)c(C)c1C	-3.2%	.	-2.3%	-1.9%	?	-4.3%	.	23.6%
COc1cc(NC(=O)Nc2c(C)n(C)n(-c3ccccc3)c2=O)cc(OC)c1OC	1.2%	.	.	6.5%	.	13.2%	.	-16.7%
CC(C)COc1ccc(-c2nnc(-c3ccncc3)o2)cc1	-5.1%	16.1%	?	-4.1%	-26.6%	1.1%	4.7%	35.7%[activator]
Oc1ccc(Br)cc1CNc1cccc2cccnc12	-25.5%	.	?	-115.5%	?	?	.	-4.3%
COc1cccc(CNC(=O)CCn2c(=O)oc3ccccc32)c1	0.2%	8.5%	8.7%	-4.6%	-1.6%	-5.6%	3.8%	11.0%
COc1ccc(/C=C2/C(=O)C(C)(C(C)C)CCC2C)cc1 (stereo not given)	-2.9%	.	1.4%[46.1 µM]	-1.8%	6.6%&6.6%[46.1 µM]	10.0%	.	5.2%
COc1cc2c(cc1OC)n(CC(=O)c1cccc(Cl)c1)c(=O)n1nc(CCn3nc(C)cc3C)nc21	.	-3.2%	?	.	.	.	1.7%	-7.3%
O=C(NC1CCCCC1)N1CCCc2ccccc21	4.0%	4.6%	5.7%	-8.8%	0.0%	-8.2%	-2.1%	-6.8%
CCN(CC)c1ccc(S(=O)(=O)N2CCCCC2)cc1NC(=O)CN1C(=O)NC2(CCCC2)C1=O	-6.0%	.	-2.7%	.	?	14.7%	.	3.4%
O=C(Nc1ccc2nc(SCC(=O)N3CCCC3)sc2c1)c1cccc(Br)c1	.	8.7%	-13.2%[46.1 µM]	.	?	.	-7.3%	?
CC(C)C12CN3CC(C(C)C)(CN(C1)C3c1ccco1)C2=O (stereo not given)	2.9%	-8.1%	-15.3%	-4.5%	8.4%	0.9%	0.7%	4.0%
Cc1cc(C)n2nc(-c3ccccc3)c(-c3ccccc3)c2n1	15.0%	.	-24.2%[46.1 µM]	-2.9%	?	18.5%	.	-19.1%
C=CCNC(=S)N1N=C(c2ccco2)CC1c1ccco1 (stereo not given)	.	.	15.0%[46.1 µM]	.	2.4%[46.1 µM]	9.2%	.	-3.0%
O=C(C1CCCN(S(=O)(=O)c2ccc(F)cc2)C1)N1CCOCC1 (stereo not given)	.	.	?	.	26.5%[46.1 µM]	-3.7%	.	34.4%[activator]
CCOP(=O)(Nc1ccc2c(c1)C(=NNC(N)=S)c1ccccc1-2)OCC	.	.	-20.2%	.	?	-27.1%	.	35.5µM*
COC(=O)C1=C(C)NC(=O)NC1c1ccc(-c2ccc(F)cc2)o1 (stereo not given)	-0.4%	.	-9.6%[46.1 µM]	.	-2.4%[46.1 µM]	7.0%	.	-9.4%
CN(C)S(=O)(=O)Nc1cccc(Br)c1	-2.7%&0.8%	.	.	0.6%&0.3%	.	-2.7%	.	-0.1%
O=C(O)Cn1c2c(c3ccccc31)CCCC2	-2.8%	2.1%	5.5%	-9.8%	5.1%	24.4%	0.9%	-15.7%
O=C(NCCCCNC(=O)c1ccc(Br)s1)c1ccc(Br)s1	-3.1%	-5.5%	1.7%	-1.5%	5.5%	-4.1%	2.0%	6.7%
CC(C)(C)c1nnc(NC(=O)CCS(=O)(=O)c2ccccc2)s1	-0.9%	.	-21.9%	6.0%	-2.1%[46.1 µM]	6.7%	.	-9.3%
COC(=O)C(C)N1CCC(=O)c2ccccc2S1(=O)=O (stereo not given)	0.5%	.	.	6.4%	-4.7%	3.2%	.	2.6%
CC1CCc2nn(CC(=O)Nc3ccccc3Cl)cc2C1 (stereo not given)	.	7.4%	8.4%[46.1 µM]	.	?	.	-7.8%	34.7%[activator]
O=C(O)c1ccc2c(c1)S(=O)(=O)c1ccccc1C2=O	1.7%	.	.	-2.4%	.	-2.0%	.	-12.7%
CCOCCCN1C(=O)C(=O)N(CC(=O)N2c3ccccc3NC(=O)CC2C)C1=O (stereo not given)	-11.1%	.	1.2%	.	4.5%	-30.8%	.	-18.8%
O=c1[nH]c2ccc([N+](=O)[O-])cc2nc1/C=C(\O)c1ccccc1	0.3%	.	.	-6.4%	.	-9.0%	.	13.3%
Cn1c(-c2sc3cc(C(F)(F)F)cnc3c2-c2cccs2)n[nH]c1=S	-0.6%	.	7.2%[46.1 µM]	3.6%	17.0%[46.1 µM]	3.9%	.	-8.9%
O=C(COc1ccccc1)Nc1nnc(-c2ccc(Cl)s2)o1	-7.1%	3.5%	.	-129.9%	.	-2.8%	-5.5%	-0.4%
COc1ccc(/C=C2/CCOC2=O)cc1	1.6%	-0.2%	11.1%	9.1%	28.2%	-3.1%	0.6%	19.5%
CCOC(=O)c1c(NC(=O)c2c(N)n(CCCOC)c3nc4ccccc4nc23)sc2c1CCCC2	-7.5%	?	11.7%	1.4%	1.6%	5.8%	3.1%	.
Cc1cc(NC(=O)CSc2nccn2-c2ccc(F)cc2)no1	-5.5%	2.9%	9.2%	-9.9%	0.0%	1.2%	1.8%	?
O=C(CSc1nnc(-c2ccncc2)n1-c1ccccc1)Nc1ccc(F)cc1	.	-5.6%	-4.6%[46.1 µM]	.	.	.	0.6%	3.5%
O=C(Cn1nc(C(=O)O)c2ccccc2c1=O)Nc1ccc(Br)cc1	2.2%	.	.	1.7%	-2.3%[46.1 µM]	-13.4%	.	2.6%
COc1ccc(-n2nnnc2SCC(=O)NCc2ccco2)cc1OC	-16.6%	-6.8%	9.9%	0.1%	-2.4%	-7.5%	1.1%	.

Screens deposited in PubChem BioAssay by National Center for Advancing Translational Sciences (NCATS).
